# ClpP mod = qHTS Assay for Activators of ClpP | 340,000 tested, 1.9% active | AID 651965, 2013 | ATP-dependent Clp protease proteolytic subunit (Bacillus subtilis (strain 168)), P80244 | purified B. subtilis ClpP, FRET peptide cleavage, 20 min | Potency, µM (highest dose often 57.5 µM), without a hit: top-dose activity change, negative = active; active = well fitted falling curve with a large enough effect; inconclusive = small, poorly fitted or top-dose-only effect; inactive = no such curve, though single readings can be large or run the other way; also: potency is read from the fitted curve at half-maximal effect; the source files actives as falling curves though it sought activators and does not explain the sign; nearly all actives have a fitted effect of over 65% in size; many hits overshoot -100%
# Target sequence (P80244 whole entry, looked up): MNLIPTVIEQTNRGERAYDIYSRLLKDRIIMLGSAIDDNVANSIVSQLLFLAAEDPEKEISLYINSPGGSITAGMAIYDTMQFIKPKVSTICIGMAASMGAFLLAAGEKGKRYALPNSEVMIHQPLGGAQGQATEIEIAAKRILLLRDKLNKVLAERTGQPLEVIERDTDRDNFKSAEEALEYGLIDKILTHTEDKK
#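 Buffer: 100 mM Tris/HCl pH8, 100 mM KCl, 0.05% low protease BSA, 2.5% glycerol, 0.01% Tween-20. ClpP 10 microg/mL final; 20 min RT; delta FRET normalized to ADEP and DMSO controls.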
# TRPV1 PAM = enhances activation of the human vanilloid receptor TRPV1 | Q8NER1 | TRPV1-expressing cells, Fluo-8 calcium influx, capsaicin EC20 potentiation; host cell line not named in the record; control for the full effect not named in the record | potentiation, % at 8.33 µM | 320,000 tested, 0.02% active | AID 540277; active means potentiation above 80%; inconclusive means 30% to 80%; inactive means below 30%; also: 0% is about no effect
# Target sequence (Q8NER1 whole entry, looked up): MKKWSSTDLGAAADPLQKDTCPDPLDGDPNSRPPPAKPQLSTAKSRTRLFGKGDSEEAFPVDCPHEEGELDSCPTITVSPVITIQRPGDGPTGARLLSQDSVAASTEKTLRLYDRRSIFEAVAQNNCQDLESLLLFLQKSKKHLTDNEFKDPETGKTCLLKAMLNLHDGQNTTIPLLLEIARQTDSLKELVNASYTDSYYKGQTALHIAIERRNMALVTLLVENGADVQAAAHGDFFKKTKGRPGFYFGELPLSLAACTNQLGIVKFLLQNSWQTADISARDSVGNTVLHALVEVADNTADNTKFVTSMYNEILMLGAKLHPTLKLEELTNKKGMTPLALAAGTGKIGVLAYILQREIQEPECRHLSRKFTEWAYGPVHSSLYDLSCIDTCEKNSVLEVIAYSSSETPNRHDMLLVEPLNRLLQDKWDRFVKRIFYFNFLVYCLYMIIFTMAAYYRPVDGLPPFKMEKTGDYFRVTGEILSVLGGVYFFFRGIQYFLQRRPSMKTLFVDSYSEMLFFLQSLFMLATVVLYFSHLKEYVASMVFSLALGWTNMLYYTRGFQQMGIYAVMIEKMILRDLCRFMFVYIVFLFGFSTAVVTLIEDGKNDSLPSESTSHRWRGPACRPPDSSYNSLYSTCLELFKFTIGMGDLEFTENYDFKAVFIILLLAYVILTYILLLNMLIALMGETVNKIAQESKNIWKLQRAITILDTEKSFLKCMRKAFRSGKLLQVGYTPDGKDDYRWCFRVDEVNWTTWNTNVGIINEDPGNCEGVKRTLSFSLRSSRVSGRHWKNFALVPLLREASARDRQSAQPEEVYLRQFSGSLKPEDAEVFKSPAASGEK
#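 TRPV1-expressing cells were cultured overnight at 35.5C and loaded with Fluo-8 calcium dye for 40 to 90 min at room temperature. After a 10 s baseline, compound was added and calcium influx was read kinetically for 3 min (ex 480/em 520 nm).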
# D2 potentiator = human D2 receptor positive allosteric modulation. P14416. DiscoveRx D2 beta-arrestin cells, luminescence, 90 min; 100% = 57 uM dopamine signal. potentiation, % (no concentration beside the values). 360,000 tested, 0.23% active. AID 624464; active = potentiation of 50% or more; inconclusive = 30% to 50%; inactive = 30% or less;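 also: compound concentration not given in the record; tested on top of an EC20 dose of dopamine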
#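 PathHunter beta-arrestin assay in DiscoveRx D2 cells. Compounds were added with an EC20 of dopamine (50 nM final) for 90 min at 37 deg C. Luminescence was read 1 h after detection reagent, with 57 uM dopamine as the EC100 control.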
# Menin-MLL FL inh = displaces fluorescein MLL peptide from human menin | Fluorescence polarization, fluorescein-MLL peptide displacement from menin | FP activity change, % at 61.4 µM | 290,000 tested, under 10 active | AID 1766; inconclusive = falling polarisation curve, or a change in total fluorescence; inactive = total fluorescence flat and polarisation flat or rising; no compound was filed as active; the % refers to the polarisation; negative = inhibition;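 also: % of control where 0% means no effect; inhibitors lower the polarisation; unlabelled MLL peptide was the positive control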
# gsp ag = activates gsp, the McCune-Albright syndrome mutation; Potency, µM (top dose mostly 76.9 µM), for the others: at the highest dose activation (cAMP increase), most hits filed as activators; 340,000 tested, 0.13% active; gsp mutant cells, cAMP HTRF, 30 min; control for the full effect not named in the record; active = well fitted activation curve with a large enough effect; inconclusive = small, poorly fitted or top-dose-only effect, or another doubt; inactive = no such curve, though single readings can be large or run the other way; cell line not stated here;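 also: phosphodiesterase inhibitor Ro 20-1724 added with compounds to block cAMP breakdown; potency is read from the fitted curve at half-maximal effect; nearly all actives have a fitted effect of over 60% in size; about a fifth of the inactives were tested at one dose only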
#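 Cells in DMEM/10% FBS with G418 were pretreated with compounds in DMSO plus […] (300 uM stock) for 30 min at 37C. cAMP was measured by HTRF (cAMP-d2 plus anti-cAMP antibody-K) after 30 min at room temperature.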
# Sfp PPTase inh = blocks B. subtilis Sfp PPTase activity; Potency, µM, for the others: max response, negative = inhibition, actives largely listed as inhibitors; Biochemical Sfp PPTase activity, qHTS; Q9F4F7; 310,000 tested, 3.5% active; active = well fitted inhibition curve with a large enough effect; inconclusive = small, poorly fitted or top-dose-only effect, or another doubt; inactive = no such curve, though single readings can be large or run the other way;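 also: the enzyme is Sfp with the accession as filed and its product quenches rhodamine fluorescence; potency is read from the fitted curve at half-maximal effect; 0% = enzyme reaction without inhibitor and -100% = no enzyme wells; top concentration of the series not given in the record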
#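 Sfp 15 nM + cpd, 15 min RT; start w/ rhodamine-CoA 5 uM, BHQ-2-YbbR 12.5 uM (final); 50 mM Hepes pH 7.6, 10 mM MgCl2, 0.01% NP-40, 0.01% BSA; read 525/598 nm at 0 and 30 min.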
# gsp antagonist = gsp mutant antagonism; gsp-mutant cells, cAMP HTRF, 30 min; control for the full effect not named in the record; Potency, µM (titrated, usually from 76.9 µM), for the others: at the highest dose activity change, negative = inhibition, usual class: inhibitors; 340,000 tested, 0.4% active; active = falling curve of any shape with a large fitted effect; inconclusive = falling curve, mostly with a smaller effect; inactive = flat or rising curve; cell line not stated here;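 also: intracellular cAMP measured with PDE inhibitor Ro 20-1724 present during compound exposure; potency is read from the fitted curve at half-maximal effect; % is scaled to controls: 0 for no effect and ±100 for the full control effect; nearly all actives have a fitted effect of over 65% in size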
#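 HTRF cAMP measurement after 30 min RT detection following 30 min, 37C compound treatment alongside […] (added as 300 uM solution) in G418-selected cells seeded at 2000/well and grown 16–24 h.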
# Numbers without * were called inactive; u = inconclusive; x = no result given; [ ] = another dose, or the depositor's remark.
SMILES,ClpP mod,TRPV1 PAM,D2 potentiator,Menin-MLL FL inh,gsp ag,Sfp PPTase inh,gsp antagonist
O=C1CC(Nc2ccc3ccccc3c2)C(=O)N1Cc1ccccc1 (stereo unspecified),-8.4%,-7,-5,4.2,-30%[inhibitor],4%,u
CCOC(=O)C(NC(C)=O)C(OC(C)=O)c1cccc(N(CCO)CCO)c1 (stereo unspecified),-3.4%,x,1,0.1,8%,-4%,0%
COc1ccc(CCC(=O)Nc2ccc(S(=O)(=O)NC3=NCCCCC3)cc2)cc1,0.2%,x,-6,x,-34%[inhibitor],x,x
COc1ccc(N(CC(=O)NCCC2=CCCCC2)S(=O)(=O)c2ccccc2)cc1OC,-0.3%,1,-11,-5.3,-20%,11%,-2%
CCOC(=O)N1CCN(C(=O)c2ccc(Cn3c(=S)[nH]c4cc(OCC)c(OCC)cc4c3=O)cc2)CC1,-0.4%,0,-18,-1.2,8%[15.4 µM],-1%,u
Cc1ccc(C(=O)NC2CC3CCCC(C2)N3C(=S)NCc2ccco2)cc1 (stereo unspecified),-1.2%,2,-14,2.4,-7%,45µM*,-8%
CCCn1c(=O)[nH]c(=O)c2c1nc(-c1ccc(OC)c(Br)c1)n2CCOC,x,-2,2,0.6,5%[15.4 µM],22%,-8%
CC(C)c1ccc(NC(=O)COc2ccc(S(=O)(=O)N3CCOCC3)cc2)cc1,-1.1%,-4,7,-0.6,-27%,12%,9%
CC(C)(C)c1cc(=O)n2c(C#N)c(C#N)nc2[nH]1,28µM*,1,1,5.4,16%,20%,-15%
Oc1ccc(-c2cn3c(n2)SCC3)cc1,-4.0%,3,-8,-4.9,-36%[inhibitor],-2%,-8%
Cc1ccc2c(c1)C1CC(C)(O2)N(c2cccc(C(=O)NCc3ccccn3)c2)C(=O)N1 (stereo unspecified),-0.6%,5,5,x,u,3%,-2%
COc1cccc(CN(C)C(=O)CCc2nnc(-c3ccsc3)o2)c1,-1.7%,-22,-14,-21,-31%[inhibitor],-7%,-4%
COc1ccccc1N1CCN(C(=O)c2c(-c3ccccc3)noc2C)CC1,-0.4%,-5,-9,0.5,-1%,1%,-5%
OCCCN=c1cc(-c2ccccc2)oc2ccc(Cl)cc12,32µM*,-10,-13,2.0,u,5%,9%
CC(C)OC(=O)CSc1nnc(-c2cnccn2)n1C,-1.8%,u,-4,2.4,u,7%,-3%
Cc1cc(C)c2nc(N3C(=O)C(O)=C(C(=O)c4ccco4)C3c3ccco3)sc2c1 (stereo unspecified),-1.8%,-7,-14,6.1,11%,-11%,u
COc1ccccc1N1CCN(C(CNS(C)(=O)=O)c2cccnc2)CC1 (stereo unspecified),0.5%,-2,-9,u,-14%,14%,9%
COc1cccc(C(=O)OCC(=O)c2c(N)n(C)c(=O)n(C)c2=O)c1,-2.9%,5,-3,x,u,x,1%
O=C(CSc1ncccn1)NC(=O)NCc1ccccc1,-3.9%,-2,-6,-0.1,2%,14%,9%
COc1ccc(CCN(C)C(=O)c2ccc(COc3ccccc3)o2)cc1OC,-0.4%,2,-1,x,-9%,-10%,-3%

# Single records, from the list above.
# CCOC(=O)N1CCN(C(=O)c2ccc(Cn3c(=S)[nH]c4cc(OCC)c(OCC)cc4c3=O)cc2)CC1 is entered as ClpP mod = -0.4%; TRPV1 PAM = 0; D2 potentiator = -18; Menin-MLL FL inh = -1.2; gsp ag = 8%[15.4 µM]; Sfp PPTase inh = -1%; gsp antagonist = u
# Oc1ccc(-c2cn3c(n2)SCC3)cc1 is entered as ClpP mod = -4.0%; TRPV1 PAM = 3; D2 potentiator = -8; Menin-MLL FL inh = -4.9; gsp ag = -36%[inhibitor]; Sfp PPTase inh = -2%; gsp antagonist = -8%

# Carrying on.
SMILES,ClpP mod,TRPV1 PAM,D2 potentiator,Menin-MLL FL inh,gsp ag,Sfp PPTase inh,gsp antagonist
Cc1cc(C(=O)COC(=O)c2ccncc2)c(C)n1CCc1ccc(F)cc1,x,-4,-1,-0.2,-2%[15.4 µM],-4%,x
COc1ccc(C(=O)NCC(=O)N2CCC(Cc3ccccc3)CC2)cc1OC,-1.7%,-4,-9,x,-52%[inhibitor],x,-9%
Cc1ccc(C=C2C(=O)c3ccccc3C2=O)s1,-0.1%,-6,-17,1.2,-36%[inhibitor],u,-23%
COc1ccc(S(=O)(=O)NCCc2ccccc2)cc1,-4.6%,12,4,-0.9,-3%,9%,-12%
CN(C)C1=NCCN1CCCC1CCCCC1,-1.8%,u,-10,x,28%,x,16%
CN1CCN(C(=S)c2ccc(N(C)C)cc2)CC1,-4.9%,19,-18,0.4,1%,-5%,10%
O=S(=O)(c1ccccc1)C1Cc2ccccc2C1Cl (stereo unspecified),x,x,-3,x,-6%,x,8%
Nc1nc(N)c2ncc(C(=O)CCc3ccccc3)nc2n1,x,7,13,-9.9,8%[15.4 µM],0%,x
Cc1ccsc1C(=O)N1CCN(c2ncc(C(F)(F)F)cc2Cl)CC1,-9.1%,x,-5,x,-34%[inhibitor],x,u
CCNC(=O)c1ccc(C2SCC(=O)N2CCc2ccccc2)cc1 (stereo unspecified),x,-4,-12,2.6,0%[15.4 µM],-6%,-2%
CCOc1ccc(C(=O)Nn2cnnc2)cc1OCC,-0.5%,8,-9,0.8,u,-6%,6%
CC(C)(C)N(Cc1ccccc1)C(=O)COC(=O)[C@@H]1CCCN1C(=O)c1cccs1,-2.3%,-3,-14,x,3%,x,-3%
CN(c1ccccc1)C1CCCCC1NS(=O)(=O)c1ccc(Cl)cc1 (stereo unspecified),0.9%,3,-10,2.7,-43%[inhibitor],11%,-12%
Cc1ccc(CN2C3CCCC2CC(NC(=O)c2ccc(F)cc2)C3)cc1 (stereo unspecified),0.4%,-23,-18,0.0,-5%[15.4 µM],17%,11%
FC(F)(F)c1nnc2ccc(N3CCN(c4ccccc4)CC3)nn12,1.1%,2,-3,2.5,-7%,5%,3%
CCCN(CC(=O)Nc1ccccc1C)C(=O)COC(=O)CSc1ccc([N+](=O)[O-])cc1,0.4%,-14,-2,x,-16%,x,-4%
O=C(NC1CCS(=O)(=O)C1)C1C2CC3CC(C2)CC1C3 (stereo unspecified),x,-13,-3,3.5,27%,8%,2%
O=C(O)CNC(=O)c1ccc(NC(=O)/C(=C/c2ccccc2)NC(=O)c2ccccc2Br)cc1,-0.8%,13,-5,4.4,-13%,13%,11%
Cc1nn(C)c(Cl)c1CN1CCCC(CO)(Cc2cccc(Cl)c2)C1 (stereo unspecified),-1.1%,-3,-11,11,-32%[inhibitor],u,5%
CC(NC(=O)Nc1ccccc1)C(c1ccccc1)N1CCOCC1 (stereo unspecified),1.3%,8,-10,0.4,-40%[inhibitor],-11%,8%
CCOc1cc(C)c(Cl)cc1S(=O)(=O)NCCOC,2.5%,1,-4,6.2,u,21%,-5%
COc1ccc(NC(=O)COC(=O)c2ccc(F)cc2F)cc1,x,-12,-5,3.9,-6%[15.4 µM],21%,13%
Cc1ccc(N(CC(=O)NCCSCc2ccco2)S(=O)(=O)c2ccc(F)cc2)cc1,1.4%,-9,-13,2.1,24%,-25%,-19%
C=CCn1c(SCC(=O)c2ccc(O)c(O)c2)nnc1-c1ccc(OC)cc1,-5.0%,-5,-1,x,x,x,-10%
O=C(Nc1ccc(S(=O)(=O)NCc2ccccc2)cc1)Nc1ccc2c(c1)OCO2,-5.4%,1,1,2.5,-3%,7%,-3%
Nc1c2c(=O)[nH]c(O)cc2nn1-c1ccccc1,x,x,-1,x,-4%,x,2%
CC1(C)Cc2nc3sc4c(N(CCO)CCO)ncnc4c3cc2CO1,14µM*,8,-19,0.2,1%,3%,23%
COc1ccc(OCC(=O)N/N=C(\C)CC(=O)Nc2cccc([N+](=O)[O-])c2)cc1,-1.9%,-4,-6,-3.0,18%,-8%,-2%
COc1ccc(N2CCN(C(=O)C3=NNC(=O)CC3)CC2)cc1,-3.9%,-7,1,2.5,5%,4%,-6%
Oc1c(C(c2ccco2)N2CCOCC2)sc2ncnn12 (stereo unspecified),0.3%,u,-7,0.3,14%,40µM*,-3%
Cc1onc(-c2ccccc2)c1C(=O)Nc1nncs1,x,11,-2,0.0,u,6%,-2%
Cn1cccc1/C=N/NC(N)=S,x,3,-6,-1.5,15%,56µM*,10%
Cc1nc(Oc2ccc(Cl)cc2)c2oc3ccccc3c2n1,0.3%,-11,-11,-2.0,3%,17%,-1%
CCn1ccnc1CN(C)Cc1cn(-c2cccc(C)c2)nc1-c1cccc(F)c1,-13%,-13,-20,-0.4,-44%,45µM*,-13%
O=[N+]([O-])c1ccc(N=NNc2ccccc2)cc1,2.3%,-2,2,-1.1,26%,-11%,7%
Oc1ccccc1N1CCN(c2ncnc3scc(-c4ccc(F)cc4)c23)CC1,x,14,2,-0.9,-11%,-17%,-26%
COc1ccc(S(=O)(=O)NCc2ccccn2)c(C)c1C,x,6,1,-0.5,6%,1%,-1%
Cc1cccc(CNC(=O)C2CCC(=O)N(C3CC3)C2)c1 (stereo unspecified),1.5%,u,-4,x,15%,12%,16%
O=C(CCn1c(=O)[nH]c2ccccc2c1=O)NCCSCc1ccccc1,-1.2%,-2,-48,0.8,9%[15.4 µM],8%,6%
CCC(C)N1CCC(Oc2ccc(C(=O)NCc3ccccn3)cc2)CC1 (stereo unspecified),-1.9%,9,-11,x,-1%[15.4 µM],8%,14%
Cc1cccc(C(=O)O/N=C(\N)c2ccc(Cl)cc2)c1,-2.2%,-12,-6,-2.5,28%,16%,3%
CC1CCN(c2c(NCC3CCC(C(=O)NC4CCCCCC4)CC3)c(=O)c2=O)CC1 (stereo unspecified),0.9%,1,3,0.4,-24%,5%,-2%
O=C(C/C(=N/O)c1ccccc1O)C(F)F,1.0%,11,-4,1.6,10%,-5%,2%
S=C1NC[C@H](CC2CCCCC2)N1CC1CCCCC1,-2.2%,-11,-30,-2.2,u,-6%,-7%

# Assay outcomes: PubChem, National Center for Advancing Translational Sciences (NCATS)
